Screens (PubChem)
HSD17B inh – inhibitors of human HSD17B10 dehydrogenase | recombinant HSD17B10, NADH fluorescence kinetic; many of its hits are not listed in these tables | Potency, µM (highest dose often 57.1 µM), for the others: at the highest dose activity change, negative = inhibition, usual class: inhibitors | hit rate 7.6% among 75,000; active means well fitted inhibition curve with a large enough effect; inconclusive means small, poorly fitted or top-dose-only effect; inactive means no such curve, though single readings can be large or run the other way;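 further: the protocol describes HADH2 (HSD17B10) and not the HSD17B4 of the title; nearly all actives have a fitted effect of over 70% in size; most hits overshoot -100% by far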
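20 nM HADH2, pH 9.0 Tris/Tween; cpd preinc 15 min RT; start w/ 1 mM NAD+ + 90 uM b-hydroxybutyryl-CoA; kinetic fluor ex360/em450 q30s x 4 min; delta last-first.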
* marks the source's active call; other numbers are inactive results; ? = inconclusive; [ ] = another dose, or the depositor's remark. On the % scale 0 is the no-effect control and ±100 the full control effect; potency means the concentration at half of the fitted maximal effect. These rows are one share of the data. The share of hits here may be higher or lower than overall.

SMILES,HSD17B inh
O=C(OCC(=O)N1CCN(C(=O)c2ccco2)CC1)c1cc(=O)c2ccccc2o1,6.0%
CN(C)C(CNS(=O)(=O)c1ccc(Br)cc1)c1cccnc1 (stereo not drawn),2.6%
CCn1cc(C(=O)NCc2ccco2)c(=O)c2cc(S(=O)(=O)N3CCCCCC3)ccc21,-8.3%
c1cncc(-c2nccc(NCc3cccs3)n2)c1,-17.4%
Cc1ccc(C(=O)COC(=O)CNC(=O)c2ccco2)cc1,-1.3%
CCCOc1ccc(NC(=O)C2CCCNC2=O)cc1 (stereo not drawn),8.3%
Cc1cc(C)c2c3c(sc2n1)C(=O)N(C)CC(=O)N3,7.4%
Cc1cc(C)nc(NC2=NCC(=O)N2c2ccc3c(c2)OCCO3)n1,1.6%
Cc1ccc(Cl)c(OCC(O)CN(CCO)CCO)c1 (stereo not drawn),10.7%
Cc1cccc(OCCNc2nc3c(c(=O)n(C)c(=O)n3C)n2C)c1,8.0%
O=C(Nc1ccc2oc(=O)c(C(=O)O)cc2c1)Oc1ccccc1,?
CC1=C(/C=C/C(C)=C/C=C/C(C)=C/C=O)C(C)(C)CCC1,-5.6%
CCCn1nnc(NC(=O)COc2cc(C)ccc2C(C)C)n1,7.4%
CCc1ccccc1NC(=O)CN(C)C(=O)CN1C(=O)NC2(CCCCCC2)C1=O,3.2%
Cc1cnc(CNc2ccnc(-c3ccccc3C)n2)cn1,-0.4%
CS(=O)(=O)N(CC(=O)N1CCN(c2cccc(Cl)c2)CC1)c1ccccc1,15.8%
O=C(c1ccc(C23CC4CC(CC(C4)C2)C3)o1)N1CCOCC1,-7.4%
O=C(NCCOc1nc(N2CCCCC2)nc(N2CCOCC2)n1)Nc1ccccc1,17.0%
Cc1cc(C)nc(SCC(=O)Nc2ncc3c(n2)CC(C)(C)CC3=O)n1,2.1%
Cn1c(=O)oc2cc(S(=O)(=O)NCc3ccncc3)ccc21,-2.9%
Oc1ccc2oc3c(c2c1/C=N/n1cnnc1)CCCC3,-3.5%
CCOC(=O)CNC(=O)c1cn(CC(C)C)c(=O)c2cc(OC)c(OC)cc12,?
c1cncc(-c2nc3ccccc3o2)c1,20µM*
c1ccc2c(c1)c1c3n2CCNC3CCC1 (stereo not drawn),?
C(=N\c1nccs1)/c1cccnc1,5.6%

(continued)
SMILES,HSD17B inh
COc1ccc(C2CC(=O)C(C=NCCO)=C(O)C2)cc1OC (stereo not drawn),5.4%
O=C(Nc1cccc(O)c1)c1ccc(Br)c(S(=O)(=O)N2CCCCC2)c1,1.8%
CCOC(=O)C(=O)C1(C(=O)OCC)Oc2cc(OC)cc(OC)c2C(=O)C1c1ccccc1 (stereo not drawn),-5.7%
CC(=O)c1c(O)cc(C)n(Cc2ccccc2)c1=O,3.9%
Clc1ccccc1-c1cc(NCCN2CCOCC2)ncn1,-27.7%
COc1ccc(CCNC(=O)c2nnn(-c3ccccc3OC)c2N)cc1OC,9.7%
Cc1cc(C)c2nc(C(F)(F)F)nc(N3CCN(C(=O)c4ccco4)CC3)c2c1,-12.7%
O=C(NCCc1ccc(Cl)cc1)C1CCN(c2cnccn2)CC1,3.7%
CN1CCN(CC(=O)Nc2cccc3ccccc23)CC1,6.6%[11.4 µM]
O=C(c1ccncc1)N1CCN(C(=O)c2ccco2)CC1,2.9%
CC(C)(C)OC(=O)N1CCN(c2ccc(NC(=O)c3cc4ccccc4oc3=O)cc2)CC1,13.3%
O=C(COc1ccccc1)Nc1ccc(Cl)c(-c2nc3ncccc3o2)c1,-3.7%
O=C(CCCn1ncn2c(cc3occc32)c1=O)N1CCc2ccccc2C1,6.6%
CCOC(=O)c1ccc(NC(=O)CC2Sc3ncnn3C2=O)cc1 (stereo not drawn),-22.3%
O=C(Cc1nc2ccccc2[nH]1)NCc1ccco1,-8.4%
COC(=O)C1CCN(C(=O)COc2cc3sc(C)nc3c3sccc23)CC1,-6.6%
O=S(=O)(c1ccc(Cl)s1)N1CCN(C/C=C/c2ccccc2)CC1,11.4%
O=S(=O)(c1cccc(-c2nnc(-c3cccnc3)o2)c1)N1CCCCC1,1.1%
COC1CCCCC1NS(=O)(=O)c1ccc(Cl)cc1 (stereo not drawn),4.4%
CCOc1ccccc1NC(=O)c1ccc(S(=O)(=O)N2CCOCC2)cc1,-11.5%
CCc1nnc(NC(=O)CSc2nnc(-c3ccoc3C)n2-c2cccc(C)c2)s1,?
COC(=O)c1cc2c(cc1NC(=O)CSCCc1ccccn1)OCO2,-19.9%
Nc1nc2ccc(C(=O)Nc3ccccc3)cc2s1,-13.3%
CCOC(=O)C1CCN(c2ncnc3c2cnn3-c2ccccc2)CC1,6.9%
CCCC(c1nnnn1C1CCCC1)N1CCN(C(=O)c2ccco2)CC1 (stereo not drawn),-0.7%

Additional results.
SMILES,HSD17B inh
COc1ccc(OC)c(C(c2nnnn2CC2CCCO2)N2CCN(C3CCCC3)CC2)c1 (stereo not drawn),-6.0%
COC(=O)C1=C2SC(C)C(=O)N2C(N)=C(C#N)C1c1cc(OC)c(OC)c(OC)c1 (stereo not drawn),-5.1%
COc1ccc(C(=O)N2CCC3(CC2)CN(c2ccc(-c4ccccc4)cc2)C3)cc1,?
CC(C)=CCSc1nnc(CCNC(=O)OC(C)(C)C)o1,-0.1%
Clc1ccc(C2[C@H]3CN(Cc4cccnc4)[C@H](c4ccccc4)C34CC2(c2ccccc2)C4)cn1 (stereo partly drawn),4.4%
CCc1ccccc1NC1c2ccccc2C(=O)N1c1cc(C)ccn1 (stereo not drawn),5.5%
Cc1ccc2c(CN3CCCc4ccccc43)cc(=O)oc2c1C,-15.8%
CN1C(=O)CSc2ccc(NC(=O)N3CCc4ccccc43)cc21,-1.6%
COc1cccc2sc(Nc3nnc(-c4ccccc4Cl)o3)nc12,?
CCCc1cc(=O)[nH]c(SCC(=O)Nc2nonc2N)n1,10.0%
COc1cc(OC)cc(C(=O)N(CN2CCCC2=O)c2ccccc2OC)c1,-4.4%
O=C(O)CCS(=O)(=O)Cc1ccccc1F,8.0%
O=C(NCCCN1CCN(c2ccc(F)cc2)CC1)c1cccc(N2CCCC2=O)c1,-2.2%
COc1cccc(C=Nc2cc(C)on2)c1O,8.5%
O=C1CCCC2=C1C(c1ccncc1)c1c(nc(SCc3ccccc3)[nH]c1=O)N2 (stereo not drawn),?
CC(C)Oc1ccc(C2/C(=C(/O)c3ccc(F)cc3)C(=O)C(=O)N2CCCN(C)C)cc1 (stereo not drawn),-0.5%
O=C1Nc2ccc(Br)cc2C1(O)Cc1ccccn1 (stereo not drawn),-2.8%
COc1ccccc1OCCCCNCCO,-6.6%
O=C(Nc1ccc2c(c1)OCCO2)c1ccco1,-7.0%
COCC(C)n1c(C)cc(C(=O)COC(=O)c2c(NC(C)=O)sc(C)c2C)c1C (stereo not drawn),5.5%
CC(C)C[C@H](NC(=O)N1CCN(c2ccccc2)CC1)C(=O)O,0.2%
C=CCn1c(SCc2cccnc2)nnc1-c1ccncc1,6.3%
O=C(CSc1ncccn1)Nn1cnnc1,2.4%
CCOC(=O)c1[nH]c(C)c(C(=O)NCCC2=CCCCC2)c1C,11.4%
Cn1c(C(O)c2ccc(Cl)cc2)nc(Cl)c1Cl (stereo not drawn),-7.9%

At a glance, some entries already given.
SMILES,HSD17B inh
CCOC(=O)c1[nH]c(C)c(C(=O)NCCC2=CCCCC2)c1C,11.4%
Cn1c(C(O)c2ccc(Cl)cc2)nc(Cl)c1Cl (stereo not drawn),-7.9%

Next records.
SMILES,HSD17B inh
O=S(=O)(c1ccccc1)N1CCC[C@@]2(CCN(C(c3ccccc3)c3ccccc3)C2)C1,-6.3%
CCOC(=O)C1CCCN(S(=O)(=O)c2cn(C)c(=O)n(C)c2=O)C1 (stereo not drawn),-6.7%
Cc1c(=O)n(OCc2ccccc2F)c2ccccc2[n+]1[O-],-25.8%
Cc1ccc(S(=O)(=O)Cn2nnnc2CN2CCOCC2)cc1,0.7%
CN1CCN(S(=O)(=O)c2ccc(NC(=O)C3CCCCC3)cc2)CC1,5.0%
O=C(O)[C@H](Cc1ccccc1)N1C(=O)c2ccncc2C1=O,-0.4%
Cc1csc(NC(=O)c2ccccc2C(=O)O)n1,13.7%
COc1ccccc1Nc1nc(N)nc(CSc2nc(C)cc(C)n2)n1,-2.3%
OC(CCN1CCCCC1)(c1ccccc1)c1ccccc1,3.3%[11.4 µM]
COCCn1c(SCC(=O)c2ccc(F)cc2)nnc1C(C)C,-4.9%
c1ccc(CCNc2ncnc3nc[nH]c23)cc1,-6.6%
Cc1ccc(N(CC(=O)NCc2ccc3c(c2)OCO3)S(C)(=O)=O)cc1,-2.7%
CO[C@H]1COC(=O)[C@H](C)NC(=O)C/C=C\[C@@H](C)[C@@H](NS(=O)(=O)c2ccc(C)cc2)COC(=O)C/C=C\[C@@H]1C,-0.7%[11.4 µM]
COCCn1c(SCC(=O)Nc2nc(C)c(Cl)cc2Cl)nc2ccccc21,0.4%
CCOc1ccc(NC(=O)N(CCN2CCOCC2)Cc2ccc3c(c2)CCCN3CC)cc1,-5.9%
Cc1ccc(NC2=NC(c3ccccc3)n3c(nc(C)cc3=O)N2)cc1 (stereo not drawn),0.9%
CCOc1ccc(NC(=O)C2CC(C)=C(C)CC2C(=O)O)cc1 (stereo not drawn),6.4%
COC(=O)n1c(=S)oc2cc(Cl)ccc21,-20.7%
N#CCCN(C(=O)Nc1ccccc1)c1ccccc1,?
COc1ccc(CCNC2=NCC(C)S2)cc1 (stereo not drawn),2.5%
CCOC(=O)N1CCN(C(=O)c2cc3c(-c4ccc(Cl)cc4)nn(C)c3s2)CC1,5.1%
CCCn1c(SCC(=O)N2CCCc3ccccc32)nc2c1c(=O)n(C)c(=O)n2C,13.5%
N[C@@H](Cc1[nH]nc2ccccc12)C(=O)O,-1.7%[11.4 µM]
CCOC(=O)c1ccc(NC(=O)CC2SCCNC2=O)cc1 (stereo not drawn),-25.2%
CS(=O)(=O)N(CC(=O)NC1CCCC1)c1cccc(F)c1,3.3%

The results go on.
SMILES,HSD17B inh
Cn1cnnc1SCc1ccc(C(=O)O)cc1,0.8%
c1nc(NCCc2cnc[nH]2)c2[nH]cnc2n1,-3.4%[11.4 µM]
CCN(CC(=O)NC)S(=O)(=O)c1ccc(C)cc1,5.7%
N#Cc1nc(Cc2ccccc2)oc1NCCCn1ccnc1,-1.6%
CC1Cc2ccccc2N1C(=O)CSc1nnnn1-c1ccc2c(c1)OCCO2 (stereo not drawn),17.6%
Cc1cc(NS(=O)(=O)c2ccc(NC(=O)c3ccco3)cc2)no1,-3.7%
O=C(CSc1nnc(-c2ccc(S(=O)(=O)N3CCCC3)cc2)o1)NCc1ccco1,-12.3%
CCOC(=O)c1ccc(NC(=O)C2C3CCC(C3)C2C(=O)O)cc1 (stereo not drawn),3.7%
COc1ccc(CCn2nnnc2C(c2ccccc2)N2CCN(C)CC2)cc1OC (stereo not drawn),12.2%
CCCCOc1ccc(C2(C(=O)O)CCCC2)cc1,7.0%
c1ccc(SCc2nc(-c3ccncc3)no2)cc1,-12.1%
COCCOC(=O)c1[nH]c2c(c1C)C(=O)C(C(=O)OC)C(C)C2 (stereo not drawn),5.6%
Clc1ccc(OCc2nc(-c3ccccn3)n[nH]2)cc1,-4.9%
COc1ccccc1NC(=O)N1CCC(C(=O)c2ccc(F)cc2)CC1,4.0%
Cc1cc(C(=O)N2CCN(Cc3ccc4c(c3)OCO4)CC2)cs1,8.4%
COc1ccc(-c2csc(NC(C)=O)n2)cc1OC,-13.0%
Cc1nnc(SCC(=O)Nc2ccc3c4c(cccc24)CC3)n1C,-2.9%
COc1ccc(C2(C(=O)Nc3c(C)n(C)n(-c4ccccc4)c3=O)CCCC2)cc1OC,13.4%
O=C1CCc2cc(S(=O)(=O)N3CCN(C(=O)c4ccco4)CC3)ccc2N1,-1.1%
Cc1cc(C)c2c(n1)sc1c(N3CCN(CCO)CC3)ncnc12,-9.6%
CC(=O)OCC1OC(C#Cc2ccc(Br)cc2)C=CC1OC(C)=O (stereo not drawn),-5.5%[11.4 µM]
Cc1n[nH]c(C)c1C(=O)CC1(O)C(=O)N(CCc2ccccc2)c2ccc(Cl)cc21 (stereo not drawn),-13.9%
O=C(NCCNC(=O)c1ccco1)c1cccc(F)c1,-0.3%
CC1Cn2c(CCc3ccccc3)nnc2S1 (stereo not drawn),3.5%
O=C(O)c1cccc(C[C@H](Br)C(=O)O)c1,-0.9%[11.4 µM]

(cont.)
SMILES,HSD17B inh
O=C1OC(N2CCN(C(=O)c3ccco3)CC2)c2ccccc21 (stereo not drawn),-3.7%
CCOC(=O)C1CCCN(CCC(=O)Nc2ccc3c(c2)CCC3)C1 (stereo not drawn),0.7%
Cc1ccc2c(N)c(C)ccc2c1,25.1µM*
O=C(CSc1ncccc1-c1nc2ccccc2[nH]1)N1CCCCC1,?
C1=C(CCNc2nnnn2-c2ccccc2)CCCC1,-0.6%
CCOC(=O)c1[nH]c(C)c(C(=O)Nc2cccc(Cl)c2C)c1C,4.7%
Cc1nc(COC(=O)c2ccc(S(=O)(=O)N3CCCC3)cc2)cs1,8.6%
COc1ccc(NC(=O)C2CCCN2S(=O)(=O)c2ccc3c(c2)CCC(=O)N3)cc1Cl (stereo not drawn),7.2%
